# Screens as filed in PubChem BioAssay.
# Cruzain Triton = qHTS Assay for Promiscuous and Specific Inhibitors of Cruzain (with detergent); Cruzipain (Trypanosoma cruzi), P25779; purified cruzain, Z-FR-AMC fluorescence, 0.01% Triton; Potency, µM, inactives show max response, negative = inhibition, actives largely listed as inhibitors; 0.43% of 200,000 active; AID 1478, 2009;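 note: plate controls were neutral wells for no effect and buffer without enzyme for full effect; nearly all actives have a fitted effect of over 40% in size; top concentration of the series not given in the record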
# Target sequence (P25779 123-467 limits assumed): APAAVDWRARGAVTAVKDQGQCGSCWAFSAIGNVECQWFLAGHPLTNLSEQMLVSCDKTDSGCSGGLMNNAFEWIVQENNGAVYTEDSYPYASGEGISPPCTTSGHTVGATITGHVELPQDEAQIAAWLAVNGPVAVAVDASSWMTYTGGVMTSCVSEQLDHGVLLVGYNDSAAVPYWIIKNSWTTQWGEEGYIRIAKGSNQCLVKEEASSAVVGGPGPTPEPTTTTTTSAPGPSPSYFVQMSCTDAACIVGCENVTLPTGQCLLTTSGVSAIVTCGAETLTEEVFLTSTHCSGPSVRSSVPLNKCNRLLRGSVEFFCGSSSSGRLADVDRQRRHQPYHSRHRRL
#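 In this qHTS format, compounds are incubated with 1.5 nM cruzain for 15 min at room temperature before 2 uM Z-FR-AMC is added. Release of AMC is followed at 360/450 nm, and progress is taken as the 60 s fluorescence difference.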
# Marburg entry inh = qHTS for inhibitors of binding or entry into cells for Marburg Virus; Potency, µM (titrated, usually from 37.8 µM), inactives show top-dose activity change, negative = inhibition, most hits filed as inhibitors; Marburg virus pseudotyped entry inhibition, cell reporter; control for the full effect not named in the record; about a third of the inactives were read at about 46 µM; 1.8% of 300,000 active; AID 540276, 2011; active = well fitted inhibition curve with a large enough effect; inconclusive = small, poorly fitted or top-dose-only effect, or effect the other way; inactive = flat fitted curve, though single readings scatter; tested in HEK293 cells; about a fifth of its hits are not listed in these tables; note: % is set by controls: 0 for no effect and ±100 for the full control effect; luciferase read-out
# Lassa entry inh = qHTS for Inhibitors of binding or entry into cells for Lassa Virus; Potency, µM (series often up to 37.9 µM), for the others: top-dose activity change, negative = inhibition, hits mostly inhibitors; Lassa virus pseudotype entry inhibition, cell reporter; control for the full effect not named in the record; 1.2% of 300,000 active; active means well fitted inhibition curve with a large enough effect; inconclusive means small, poorly fitted or top-dose-only effect, or effect the other way; inactive means flat fitted curve, though single readings scatter; tested in HEK293 cells; note: % is set by controls: 0 for no effect and ±100 for the full control effect; nearly all actives have a fitted effect of over 50% in size; luciferase read-out
# SARS PLpro yeast = qHTS of Yeast-based Assay for SARS-CoV PLP; Potency, µM (top dose mostly 32.9 µM), for inactives: at the top dose activity, positive = growth rescue; AID 485353, 2010; S. cerevisiae expressing SARS-CoV PLpro, growth rescue; control for the full effect not named in the record; 0.19% of 330,000 active; active means well fitted rising curve with a large enough effect; inconclusive means small, poorly fitted or top-dose-only effect; inactive means no such curve, though single readings can be large or run the other way; note: 0% is about no effect; nearly all actives have a fitted effect of over 55% in size; growth read by luminescence after 48 h
# 2A StopGo = High Throughput Screening for Foot and Mouth Disease Virus Antivirals. human cells with a luciferase reporter of 2A StopGo recoding; control for the full effect not named in the record. Potency, µM (highest dose often 57.9 µM), for inactives: at the top dose signal change, negative = less light. 1.2% of 410,000 active; active = well fitted falling curve with a large enough effect; inconclusive = small, poorly fitted or top-dose-only effect; inactive = no such curve, though single readings can be large or run the other way; tested in HEK293T cells; note: % is set by controls: 0 for no effect and ±100 for the full control effect; nearly all actives have a fitted effect of over 45% in size; luciferase light after 4 h
# RE007 growth inh = qHTS Assay for Inhibitors of the HIV-1 protein Vpr | 0.21% of 360,000 active | S. pombe RE007 Vpr strain, BacTiter-Glo ATP luminescence, 24 h; control for the full effect not named in the record | Potency, µM (highest dose often 92.2 µM), for inactives: at the top dose activity change, negative = less growth; active = well fitted falling curve with a large enough effect; inconclusive = small, poorly fitted or top-dose-only effect; inactive = no such curve, though single readings can be large or run the other way;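 note: % is set by controls: 0 for no effect and ±100 for the full control effect; nearly all actives have a fitted effect of over 50% in size; the assay follows cell death caused by Vpr and the record does not say whether a fall means rescue or toxicity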
#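 Fission yeast strain RE007, carrying one chromosomally integrated HIV-1 vpr copy, was seeded at OD 0.01 in PMG+AL medium with 23 nL pinned compound. After 24 h at 30 °C and 99% humidity, viability was read by BacTiter-Glo luminescence.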
# Cruzain inh noDet = qHTS Assay for Promiscuous and Specific Inhibitors of Cruzain (without detergent); Cruzipain (Trypanosoma cruzi), P25779; purified cruzain, Z-FR-AMC fluorescence, no detergent; Potency, µM, for the others: max response, negative = inhibition, hits mostly inhibitors; 2.3% of 200,000 active;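 note: plate controls were enzyme without inhibitor for no effect and buffer without enzyme for full effect; nearly all actives have a fitted effect of over 40% in size; top concentration of the series not given in the record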
#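 Detergent-free condition (0.00005% Triton X-100) in acetate buffer pH 5.5 with DTT. 1.5 nM enzyme and compound were pre-mixed 15 min, then 2 uM Z-FR-AMC substrate added; reaction progress from fluorescence change between first and third reads (60 s).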
# NS1 inh = qHTS Assay for Inhibitors of Influenza NS1 Protein Function. S. cerevisiae slowed by influenza A NS1, growth recovery by OD600. Potency, µM (top dose mostly 46.1 µM), without a hit: at the highest dose activity, positive = more growth. 0.4% of 270,000 active. AID 2326, 2010; active means well fitted rising curve with a large enough effect; inconclusive means small, poorly fitted or top-dose-only effect; inactive means no such curve, though single readings can be large or run the other way; note: nearly all actives have a fitted effect of over 50% in size
#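 Read-out: OD600 growth recovery of NS1-expressing budding yeast. Cells grown overnight at 30C in -URA glucose medium, washed, resuspended and diluted 1:100 in 2% galactose assay medium, pH 6.0. Same strain lacking NS1 served as positive control.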
# Numbers without * were called inactive; u = inconclusive; x = no result given; & = joins results of further samples; [ ] = dose if it differs, or a comment. Unless noted, calls come from the whole dose curve; as a rule, active = well fitted curve in the direction sought with a large enough effect; inconclusive = small, poorly fitted or top-dose-only effect, or another doubt; inactive = no such curve, though single readings can be large; an effect the other way counts as inactive or inconclusive. Potency is the fitted concentration of half-maximal effect. Compounds as they come; any-hit rate near 4.7%.
# Sample of the layout:
SMILES,Cruzain Triton,Marburg entry inh,Lassa entry inh,SARS PLpro yeast,2A StopGo,RE007 growth inh,Cruzain inh noDet,NS1 inh
Cc1c(NC(=O)CSc2ccc(Cl)cc2)cccc1-c1nc2ncccc2o1,-1.0%,u,u,u,-29%,1%,17%,-51%
CNc1nc(C)c(C#N)c(-c2ccccc2)c1C(C)=O,-3.3%,u,1%,-5%,0%,-5%,-5%,-52%

# This part in full (from the top)
SMILES,Cruzain Triton,Marburg entry inh,Lassa entry inh,SARS PLpro yeast,2A StopGo,RE007 growth inh,Cruzain inh noDet,NS1 inh
Cc1c(NC(=O)CSc2ccc(Cl)cc2)cccc1-c1nc2ncccc2o1,-1.0%,u,u,u,-29%,1%,17%,-51%
CNc1nc(C)c(C#N)c(-c2ccccc2)c1C(C)=O,-3.3%,u,1%,-5%,0%,-5%,-5%,-52%
CCOC(=O)c1cc(-c2ccc(C)cc2)n(CCC(=O)Nc2ccc(OC)c(OC)c2)c1C,-7.8%,u,x,x,-5%,x,u,x
Cc1ccc(CNc2cc(C)nc3nc(-c4cccc(C)c4)nn23)cc1,-8.3%,x,u,x,-5%,x,-2%,x
O=C(c1ccc(N2CCOCC2)c([N+](=O)[O-])c1)N1CCN(c2ccccc2F)CC1,x,15%,-9%,0%,-17%,-17%,x,x
COC(=O)N/N=C(\C)c1ccco1,x,-7%[46.1 µM],4%,4%,-2%,6%,x,x
COc1ccc(Cn2c(CCC(=O)O)nc3cccnc32)cc1,4.4%,5%,2%,u,-3%,1%,5%,4%
COc1ccccc1C(=O)N1CC2(C)CC1CC(C)(C)C2 (stereo unspecified),-0.1%,u,-12%,-16%,-5%,4%,16%,-10%
CCc1ccc(NC(=O)C(=O)NCc2ccccn2)cc1,x,-9%,u,0%,62%[activator],0%,x,4%
NC(=O)C(Cc1ccccc1)N1C(=O)c2ccccc2C1=O (stereo unspecified),x,9%,-4%,0%,-7%,-5%,x,x
CCOC(=O)c1sc2nc(N3CCOCC3)c3c(c2c1N)CC(C(C)C)OC3 (stereo unspecified),x,x,x,0%,-29%,-5%,x,0%
CN(C)S(=O)(=O)c1ccc(NC(=O)CN2CCC(Cc3ccccc3)CC2)cc1,x,x,x,-1%,2%,15%,x,1%
CCOC(=O)c1c(C)[nH]c(C)c1S(=O)(=O)N(C)CC(=O)NCc1cccc(Br)c1,-2.1%,x,-3%[46.1 µM],2%,-1%&0%,-1%,27%,-12%
CC(C)N(CC#CC(O)(c1ccccc1)c1ccccc1)C(C)C,x,u,0%,-1%,-18%,-9%,x,-3%
COCCCn1c(SCc2cccc(C(F)(F)F)c2)nc2cc(OC)c(OC)cc2c1=N,-6.6%,9%,u,-30%,14%,2%[3.69 µM],u,-23%
CCCNC(=O)CSc1ccc(S(=O)(=O)N2CCCCC2)cn1,x,0%,0%,-3%,u,3%,x,x
COc1ccccc1CNC(=O)c1ccc2nc(CCc3ccccc3)oc2c1,-5.2%,x,-12%[46.1 µM],x,-16%,x,-11%,x
CCOC(=O)c1c(C)c(C#N)c2c3ccccc3ccn12,1.8%,15%,18%,1%,31%,-12%,8%,2%
Cn1c(=O)oc2cc(S(=O)(=O)N3CCC(C(=O)N4CCc5ccccc5C4)CC3)ccc21,3.4%,x,x,3%,-13%,-16%,0%,3%
Cc1ccc(N2C(=O)c3[nH]nc(-c4ccc(Cl)cc4)c3C2c2ccc(F)cc2)cc1 (stereo unspecified),-5.8%,u,u,x,u,x,u,x
CCN(CC)CCCN(Cc1cc2cc3c(cc2[nH]c1=O)OCO3)C(=S)Nc1ccccc1,x,u,3%[46.1 µM],0%,-6%,5%,x,-10%
COc1ccccc1C1CC(c2ccc(NS(C)(=O)=O)cc2)=NN1S(=O)(=O)c1ccccc1 (stereo unspecified),x,x,x,u,13%,-4%,x,u
COc1ccc(C(=O)N2CCCC(c3nc(-c4ccc(OC)c(OC)c4)no3)C2)c(OC)c1 (stereo unspecified),1.7%,u,0%,-8%,u,-29%,14%,-51%
COc1ccc(C(CC(=O)Nc2ccc(C)cc2)NC(=O)C(F)(F)F)cc1 (stereo unspecified),0.3%,u,1%,1%,-14%,-11%,u,3%
COc1ccc(NC(=O)CSCC(=O)N2CCCc3ccccc32)cc1,x,-7%,8%,4%,-20%,13%,x,x
CCCC(=O)N1CCN(c2ccc(NC(=O)c3ccccc3)cc2)CC1,-0.4%,25%,2%,-2%,1%,-3%,7%,-6%
Cc1ccc2ccc(S(=O)(=O)n3nc(C)cc3C)cc2c1,-1.6%,5%,3%,-26%,7%,4%,-18%,-22%
O=C(NCc1ccccc1Cl)c1ccc2c(=O)n(CC3CCCO3)c(=S)[nH]c2c1 (stereo unspecified),x,0%[46.1 µM],x,0%,-25%,-3%,x,14%
O=C(NCc1cccs1)c1cc(-c2ccccc2)nc2ccccc12,-5.6%,u,-26%,-28%,-3%,0%,11%,-12%
Cc1ccc(S(=O)(=O)N2CCCCC2)cc1C(=O)NCCc1ccccc1,x,u,u,1%,-17%,31%,x,9%
COc1cc2c(cc1OC)C(c1ccc(SC)cc1)CC(=O)N2 (stereo unspecified),x,x,x,-4%,-13%,5%,x,4%
COc1ccc(-c2nnc3ccc(SCC(=O)Nc4nccs4)nn23)cc1OC,-1.9%,u,-12%,0%,-24%,15%,1%,-6%
O=c1[nH]c(SCc2nc3ccccc3c(=O)n2-c2ccccc2C(F)(F)F)nc2ccccc12,0.4%,4%,-22%,1%,18µM*,6%,10%,12%
COc1ccc(-c2noc(CSc3nnc(CCc4ccccc4)n3-c3ccccc3)n2)cc1OC,-0.6%,-1%&-35%,4.1µM*,-3%,x,11%,u,-18%
CC(Cl)(Cl)/C(=N/P(=S)(N1CCOCC1)N1CCOCC1)N1CCOCC1,x,x,x,2%,-13%,-1%,x,-2%
O=C1C(Oc2ccccc2)C(c2cccs2)N1Cc1ccc2c(c1)OCO2 (stereo unspecified),0.6%,u,-11%,1%,-22%,-8%,-4%,2%
COc1ccc(CCNC(=O)C2CCCN(S(C)(=O)=O)C2)cc1 (stereo unspecified),x,-1%[46.1 µM],17%[46.1 µM],-4%,-19%,6%,x,8%
O=S(=O)(Nc1ccc(C(F)(F)F)cc1)c1cnc[nH]1,-1.5%,1%,8%,u,-19%,-2%,6%,7%
CCOc1ccc(S(=O)(=O)N(C)c2ccc(OCC(=O)NCC3CCCO3)cc2)cc1 (stereo unspecified),x,u,u,0%,-11%,-13%,x,x
CC(=O)c1cccc(NC(=O)CNC(=O)c2cc3ccccc3o2)c1,x,x,x,30%,u,6%,x,0%
CCOC(=O)c1sc(-c2ccc(F)cc2)cc1N,-12%,u,16%,-12%,5%,6%,4%,-4%
CC(C)C(=O)N1CCN(c2ccccc2NC(=O)Cc2ccc(Cl)cc2)CC1,2.8%,-24%,2%,-1%,u,-4%,-1%,-43%
CCC(C)c1ccc(NC(=S)Nc2ccc(OC)cc2C)cc1 (stereo unspecified),-11%,u,3%,-78%,1%,x,9%,21%
COc1ccc(-c2cc(C(=O)N(C)CC(=O)Nc3ccccc3Cl)c3ccccc3n2)cc1OC,x,u,u,-2%,-4%,12%,x,x
Cc1cccc(OCCCC(=O)O)c1C,4.2%,3%,-2%,1%,19%,-1%,-5%,-31%
CCc1ccc(OCC(=O)Nc2ncn[nH]2)c(Br)c1,-0.1%,u,-21%[46.1 µM],x,-16%,x,-6%,x
CC(C)(C)C(=O)Nc1ccc(C(=O)NNC(=O)c2ccccc2)cc1,x,u,13%,-9%,22%,8%,x,x
COC(=O)c1sc2nc(CN3CCN(c4cccc(C(F)(F)F)c4)CC3)[nH]c(=O)c2c1C,-8.0%,6%[46.1 µM],9%[46.1 µM],20%,-3%,-4%,9%,28%
O=C1N/C(=C/c2ccc(N3CCCC3)cc2)C(=O)N1c1ccccc1,-6.0%,-21%,2%,3%,51%[activator],-6%,3.2µM*,20%
O=C(c1nc2ccc(Cl)cn2c1CN1CCC[C@H]1CO)N1CCCCCCC1,x,x,x,u,-4%,-5%,x,3%
Cc1csc(OCc2ccc(C#N)cc2)n1,4.8%,21%,3%,3%,8%,-15%,-2%,-1%
COc1ccc(OCC(=O)Nc2ccc3c(c2)nc(CCN2CCOCC2)n3C)cc1,0.0%,-3%,1%,1%,-5%,9%,-3%,-4%
COC(=O)c1ccccc1SC1CC(=O)N(c2ccccc2)C1=O (stereo unspecified),0.1%,10%,u,-14%,0%,-8%,4%,-19%
CCOc1ccc(C(=O)NC(C(=O)NCCc2ccc(OC(F)F)cc2)C(C)C)cc1 (stereo unspecified),x,u,u,9%,5%,-13%,x,4%
CCCn1c(SCC(=O)Nc2ccc(Cl)cc2)n[nH]c1=O,x,-30%,-14%,1%,u,-21%,x,x
CCOC(=O)CN1N=C(c2ccc(Cl)s2)CSC1=O,-3.1%,3%,u,-11%,6%,-5%,-14%,5%
O=S(=O)(Cc1ccccc1)N1CCC(N2CCN(c3ccccc3)CC2)CC1,-0.5%,27%,5%,7%,-6%,6%,-4%,5%
O=C(NCCCN1CCOCC1)c1cc(-c2ccc(O)cc2)on1,-5.9%,x,x,-1%,12%,15%,2%,6%
COc1ccc(-c2ncncc2-c2ccc(OC)c(OC)c2)c(O)c1,x,u,u,-1%,5%,-7%,x,0%
COc1ccc(C(=O)Nc2ccc3[nH]ccc3c2)cc1,x,u,1.4µM*,x,8.9µM*,u,x,x
Cc1nnc(Sc2c(-c3ccccc3)c3ccc(Cl)cc3[nH]c2=O)s1,-1.0%,-4%,-14%,-14%,x,15%,u,10%
